INS promoter inh: TRM-6 insulin promoter activity inhibition. 0.9% of 130,000 active. inhibition, % at 2 µM. TRM-6 cells (human fetal islet line), insulin promoter-eGFP reporter, imaging; reporter expression induced with tamoxifen;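 active = inhibition above the mean plus 3 SD, with well images judged a real hit on visual review, cut at about 60% in these data, passing the limit was not always enough; inconclusive = inhibition over the cutoff but images rejected on review; inactive = inhibition not above the cutoff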
HSV replic up: increases HSV replication in cells; 0.005% of 220,000 active; AID 1956; HSV replication augmentation in cells, fold increase; maximum fold increase;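 active = peak rise of 1.5-fold or more in the series; inconclusive = self-fluorescent or not available for retest; tested in PC3 cells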;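 also: first round at 10 µM; read as green reporter fluorescence; hits show the peak of a series up to 25 µM; 1 = signal of infected wells without compound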
GALR2 ag: agonists of human galanin receptor 2 (GALR2). O43603. GALR2-expressing cells, agonist activation read-out. activation, %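 (tested at 5 µM)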. 0.48% of 140,000 active. AID 803;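 active = above mean plus 3 SD of all compounds, about 5% in these data, not always enough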;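 also: 0% = vehicle buffer wells and 100% = reference agonist at full effect; tested in CHO reporter cells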
RGS16-Gao: modulates binding between human RGS16 and Galphao; O15492+P09471; bead-based flow cytometry RGS16-Galphao binding, fluorescence; actives lie on both sides; binding response (% of control), % at 10 µM; 0.38% of 220,000 active; AID 1441;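 active = below 25% or above 175%, edge rows of some plates excepted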;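 also: Galphao activated by GDP with aluminum fluoride before binding; 100% = wells without compound and 0% = beads without RGS; some results beyond the cut were filed as inactive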
PKD1 kinase inh: blocks activity of human protein kinase D1. Q15139. PKD1 kinase fluorescence polarization assay. inhibition, %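 (about 10 µM by stock and volumes)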. 0.056% of 200,000 active. AID 797;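 active = inhibition of 50% or more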;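 also: controls were vehicle for no effect and a reference inhibitor for full effect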
Target sequence (Q15139 whole entry, looked up): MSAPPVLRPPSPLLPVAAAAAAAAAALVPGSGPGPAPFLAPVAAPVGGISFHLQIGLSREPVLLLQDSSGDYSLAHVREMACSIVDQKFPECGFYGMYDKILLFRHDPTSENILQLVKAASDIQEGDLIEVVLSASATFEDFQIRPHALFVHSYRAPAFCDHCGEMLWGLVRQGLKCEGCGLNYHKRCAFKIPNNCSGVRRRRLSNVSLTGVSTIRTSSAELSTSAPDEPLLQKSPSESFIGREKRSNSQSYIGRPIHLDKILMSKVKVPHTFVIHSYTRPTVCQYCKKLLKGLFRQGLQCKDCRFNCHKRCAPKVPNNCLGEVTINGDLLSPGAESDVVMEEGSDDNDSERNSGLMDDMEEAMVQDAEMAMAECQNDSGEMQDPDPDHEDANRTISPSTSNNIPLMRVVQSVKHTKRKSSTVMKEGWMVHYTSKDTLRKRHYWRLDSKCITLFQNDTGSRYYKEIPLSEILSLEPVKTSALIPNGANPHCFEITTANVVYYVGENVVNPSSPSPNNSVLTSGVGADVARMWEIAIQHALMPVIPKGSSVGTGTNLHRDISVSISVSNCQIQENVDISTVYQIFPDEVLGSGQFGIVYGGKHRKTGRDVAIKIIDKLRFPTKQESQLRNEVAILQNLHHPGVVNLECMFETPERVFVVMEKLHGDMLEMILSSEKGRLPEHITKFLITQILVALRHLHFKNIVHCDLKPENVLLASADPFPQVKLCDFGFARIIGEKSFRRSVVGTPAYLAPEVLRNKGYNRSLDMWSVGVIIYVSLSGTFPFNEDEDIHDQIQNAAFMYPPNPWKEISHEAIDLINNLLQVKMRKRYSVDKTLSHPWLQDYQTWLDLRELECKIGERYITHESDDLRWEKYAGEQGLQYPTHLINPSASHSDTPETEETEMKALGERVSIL
INS promoter inh cell count: further read-out of INS promoter inh, marked with its call; normalized cell count, %; measured here: cell count, toxicity; reference of the scale not given here;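 cells exposed to compound for 48 h; stained nuclei by imaging scaled within each plate; lower means fewer cells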
HSV replic up primary fold: also measured in HSV replic up; calls as there; fold increase; compound at 10 µM; measured here: primary screen fold increase 10 uM; tested in PC3 cells;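 GFP signal in the first replicate; 1 = infected wells without compound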
The depositor's hits bear a star; i = inactive; ? = inconclusive; nt = not tested or not shown. Outcome played no part in choosing rows (roughly 1.3% active in at least one column).

Structure,HSV replic up primary fold,PKD1 kinase inh,INS promoter inh cell count,INS promoter inh,GALR2 ag,HSV replic up,RGS16-Gao
Cc1ccc(C(C(=O)NC2CCCC2)N(C(=O)Cc2cccs2)c2ccc3c(c2)OCCO3)cc1 (configuration not stated),0.88,7,66,-28,-4.1,i,109
CC1=C(C)CC(C(=O)NCCc2ccccc2)C(C(=O)O)C1 (configuration not stated),0.96,9,180,7,-2.8,i,101
CCOc1ccc(N2C(=O)CC(n3nc(C)cc3C)C2=O)cc1 (configuration not stated),1.1,-10,148,-25,-1.3,i,102
C=CCC(NC(C)c1ccccc1)c1ccco1 (configuration not stated),0.97,0,81,19,-4.2,i,101
COc1cc(/C=N/Nc2nncn2/N=C/c2ccc(O)c(OC)c2)ccc1O,0.97,8,70,0,nt,i,94
O=C(c1nc2ccccn2c1CNCC1OCCc2ccccc21)N1CCOCC1 (configuration not stated),1.1,5,nt,nt,nt,i,99
CCn1c2ccccc2c2nc3cc(S(=O)(=O)N4CCOCC4)ccc3nc21,nt,-11,nt,nt,1.6,nt,49
CCOC(=O)CN(C(=O)CSc1nnc(Cc2ccccc2)n1-c1ccc(C)cc1)c1ccccc1,0.94,-6,95,-7,-0.5,i,110
COc1ccc(CCN2C(=O)CC(NNC(=O)c3ccccc3Br)C2=O)cc1 (configuration not stated),1,3,92,-22,1.4,i,125
Cc1ccc2c(c1)Oc1ccc(NC(=O)CCl)cc1C(=O)N2,0.85,2,7,-200,nt,i,118
O=[N+]([O-])c1c(-c2cn[nH]c2)n[nH]c1-c1cn[nH]c1,1,nt,nt,nt,nt,i,101
Cc1ccc2nc(C(O)C(O)c3nc4ccc(C)cc4[nH]3)[nH]c2c1 (configuration not stated),0.82,4,111,-75,0.1,i,102
O=C(CSc1ccccc1)Nc1cc(Cl)ccc1Oc1ccccc1,1.1,0,nt,nt,-0.7,i,125
Cn1c(CCNC(=O)C2CCCCC2)nc2cc(NC(=O)c3cccs3)ccc21,0.97,1,nt,nt,nt,i,99
CSc1nn2c(C(F)(F)F)cc(C(F)(F)F)nc2c1C(=O)O,1.1,nt,nt,nt,nt,i,103
COc1cccc(C(=O)Nc2cnn(C(C)C)c2)c1,0.9,-5,nt,nt,nt,i,97
CC(C)CC1=NN(C(=O)c2ccncc2)C(O)(C(F)(F)F)C1 (configuration not stated),0.9,-1,117,21,-0.2,i,106
CN(CC(=O)NC1CCCCCCC1)S(=O)(=O)c1cccc2cccnc12,0.87,0,nt,nt,-0.7,i,97
O=C(O)C1=C[C@H](c2ccc(C(F)(F)F)cc2)C[C@H](OCc2ccc(CO)cc2)O1,0.86,21,nt,nt,nt,i,98
CC(C)CCN1CCN(Cc2cccn2-c2ccc(Cl)cn2)CC1CCO (configuration not stated),0.94,-4,nt,nt,nt,i,101
COC(=O)/C=C(\Oc1ccccc1)C1(O)CCCCC1,0.98,nt,nt,nt,nt,i,107
S=C1NC2(CCCCC2)Cc2ccccc21,0.97,10,175,27,-0.6,i,105
O=C(Nc1cccc(-c2nc3ncccc3o2)c1)c1cc2ccccc2o1,0.76,9,nt,nt,-0.8,i,77
O=C1c2ccccc2N2C(=O)c3ccccc3[C@H]2N1c1ccccc1,1.2,-2,90,-2,-1.6,i,101
CCOc1cc(S(=O)(=O)N2CCN(c3ccc(F)cc3)CC2)c(OCC)cc1-n1cnnn1,0.74,-11,87,27,-1.4,i,85
CC1Cc2ccccc2N1C(=O)Cn1c(=O)oc2cc(S(=O)(=O)NC3CCCC3)ccc21 (configuration not stated),0.75,9,nt,nt,-0.2,i,47
O=C(O)CC(NC(=O)C12CC3CC(CC(C3)C1)C2)c1cccc([N+](=O)[O-])c1 (configuration not stated),1,-3,46,0,nt,i,29
Cc1ccc(-c2nnc(Nc3ccccc3)c3ccccc23)cc1S(=O)(=O)NCC1CCCO1 (configuration not stated),0.81,4,119,-31,-2.3,i,101
CCOC(=O)N1CCN(C(=O)/C(=C\c2ccc(SC)cc2)NC(=O)c2ccccc2)CC1,0.9,nt,nt,nt,nt,i,93
CCCOC(=O)C1=C(C)NC2=C(C(=O)CCC2)C1c1cccc(OC)c1OC (configuration not stated),1.1,3,80,-73,1.2,i,98

Brought forward from above: 2 compounds; new compounds follow.
Structure,HSV replic up primary fold,PKD1 kinase inh,INS promoter inh cell count,INS promoter inh,GALR2 ag,HSV replic up,RGS16-Gao
CCOC(=O)N1CCN(C(=O)/C(=C\c2ccc(SC)cc2)NC(=O)c2ccccc2)CC1,0.9,nt,nt,nt,nt,i,93
CCCOC(=O)C1=C(C)NC2=C(C(=O)CCC2)C1c1cccc(OC)c1OC (configuration not stated),1.1,3,80,-73,1.2,i,98
Cc1ccc(NC(=O)Cc2nn(C)c(=O)c3ccccc23)cc1F,1,1,221,17,-0.5,i,105
O=C(CSc1nnnn1C1CCCCC1)Nc1ccc(F)cc1,0.89,-9,nt,nt,nt,i,102
CCc1ccc(NC2=CC(=O)CC(c3ccco3)C2)cc1 (configuration not stated),0.97,-4,97,0,0.1,i,115
Cc1ccnc(NS(=O)(=O)c2ccc(NS(=O)(=O)Cc3ccccc3)cc2)n1,1.1,-4,92,61,0.5,i,96
COc1ccc(C(=O)c2cn[nH]c2-c2cc(Cl)ccc2O)cc1,0.84,-7,nt,nt,-1.5,i,103
COc1ccccc1Nc1nc(N)nc(-c2cc3ccccc3o2)n1,1,-1,66,43,2.4,i,99
CCC(C)(C)C1CCc2c(sc(N)c2C(N)=O)C1 (configuration not stated),0.96,-6,122,36,-0.4,i,97
Cc1ccc(OCc2nnc(SCC(=O)Nc3cccc4ccccc34)n2-c2ccccc2)cc1,nt,-9,117,-46,-1.7,nt,41
O=C(Nc1cccc(Cl)c1)Nc1ccccc1C(=O)NCc1ccco1,0.93,-10,100,0,-1.4,i,98
CC(C)Oc1ccc(C(=O)Nc2nnc(SCC(=O)N3CCOCC3)s2)cc1,nt,0,nt,nt,-1.0,nt,102
O=S(=O)(NCC1CC1)c1cccc(S(=O)(=O)N2CCCC2)c1,1,-4,nt,nt,-1.4,i,101
CC1CCN(Cc2nc(-c3ccccc3)no2)CC1,0.86,-1,nt,nt,0.5,i,102
CSc1ccc(S(=O)(=O)NCc2ccccc2C)cc1,0.9,1,168,-20,nt,i,116
COc1cc(/C=C/c2cc(C(=O)O)c3ccccc3n2)cc(OC)c1O,0.96,1,96,-18,nt,i,103
CCOC(=O)c1ccccc1NC(=O)Cn1cnc2c(cnn2C(C)(C)C)c1=O,0.93,-14,61,14,-1.5,i,100
CC(Oc1ccccc1)C(=O)Nc1cccc(NC(=O)c2ccco2)c1 (configuration not stated),1.2,nt,nt,nt,nt,i,99
CCc1ccccc1NC(=S)NC1CC2CCC(C1)N2Cc1ccc(F)cc1 (configuration not stated),0.94,-7,nt,nt,nt,i,267
COc1cccc(CNC(=O)C2CCN(S(=O)(=O)c3cccc4cccnc34)CC2)c1,nt,-11,129,15,0.1,nt,86
Cc1cc2oc(=O)cc(CN3CCN(S(=O)(=O)/C=C/c4ccccc4)CC3)c2cc1C,0.88,-2,98,22,-0.8,i,98
CS(=O)(=O)c1ccc2nc(NC(=O)c3cc4ccccc4o3)sc2c1,0.96,-5,66,21,-1.8,i,102
Cc1cc(NC(=O)CSc2nc3c(c(=O)n(C)c(=O)n3C)n2C(C)C)no1,0.93,-1,nt,nt,-1.8,i,104
COc1ccc(NC(=O)CSc2nc(N)c(-c3ccccc3)c(=O)[nH]2)cc1,1,-4,nt,nt,-1.7,i,101
CC(N)C12CC3CC(C1)CC(C(C)N)(C3)C2 (configuration not stated),0.74,0,86,-26,-0.7,i,104
CC1CCCCN1C(=O)COc1ccccc1F (configuration not stated),0.99,-6,71,0,nt,i,111
C=CCSc1nc2c(c(=O)[nH]1)C(c1ccccc1)C(C#N)=C(N)O2 (configuration not stated),0.99,nt,nt,nt,nt,i,100
CC1=NN(c2ccccc2)C(=O)/C1=C\C=C1\N(C)c2ccccc2C1(C)C,1.4,-3,nt,nt,-0.8,i,104
CCOc1ccc2[nH]c(C)c(CN(C)C)c(=O)c2c1,0.9,0,127,12,-0.9,i,102
CN1C(=O)C2(c3ccccc31)C1CCCC=C1C(C#N)=C(N)C2(C#N)C#N (configuration not stated),1.1,3,82,18,-0.4,i,100
CN(C)/C=C(\C(=O)c1ccc(F)cc1F)c1nnnn1-c1ccccc1,1,2,145,58,-0.7,i,95
NC(=O)C1(N2CCCCC2)CCN(C(=O)CSc2nc3ccccc3[nH]2)CC1,0.77,-11,132,-95,-1.2,i,100

Following part:
Structure,HSV replic up primary fold,PKD1 kinase inh,INS promoter inh cell count,INS promoter inh,GALR2 ag,HSV replic up,RGS16-Gao
Cc1ccc(N2C(=O)C3ON(c4ccccc4)C(c4ccncc4)C3C2=O)c(C)c1 (configuration not stated),0.87,-15,85,53,-5.3,i,108
CCC(=O)NC(=S)Nc1cccc(NC(=O)CC)c1,0.94,-9,97,-26,-2.1,i,102
O=C(NCC1CCCO1)c1ccc(CS(=O)(=O)c2ccc(Br)cc2)o1 (configuration not stated),1,-9,nt,nt,-5.2,i,102
Cc1ccc(N(CN2C(=O)C3CC=CCC3C2=O)C(=O)c2ccco2)cc1Cl (configuration not stated),1.2,-3,nt,nt,-1.0,i,115
CCn1c(SCCC(=O)Nc2ccccc2)nnc1-c1ccc(OC)cc1,0.9,-2,85,-36,0.9,i,101
COc1ccc(/C=C2\CCCc3c2nc2ccccc2c3C(=O)O)cc1OC,nt,nt,nt,nt,nt,?,102
COc1cc(OC)c2c(-c3ccccc3)cc(=O)oc2c1C(CCN1CCN(c2ccccc2)CC1)c1ccc(N(C)C)cc1 (configuration not stated),0.94,nt,nt,nt,nt,i,102
CC(=O)N1CCc2cc(S(=O)(=O)NCCC(=O)Nc3cccc(C)c3C)ccc21,0.94,-2,nt,nt,-1.1,i,100
C=C1c2cc(OC)ccc2NC(=O)N1CC,0.9,4,75,11,-0.7,i,96
Fc1ccc(OCCCCCN2CCCC2)cc1,1,8,nt,nt,-2.9,i,99
Cc1nn(-c2ccc(F)cc2)c(Cl)c1/C=N/NC(=O)c1cccs1,0.8,2,130,53,0.4,i,100
COc1ccc(CCN2C(=O)CC(NNC(=O)c3ccccc3Br)C2=O)cc1OC (configuration not stated),0.97,10,98,24,-0.4,i,102
O=C1C(Cc2ccc(O)cc2)NC(=S)N1C1CCCCC1 (configuration not stated),1,nt,nt,nt,nt,i,100
CN(C)S(=O)(=O)N1CCN(S(=O)(=O)c2ccc3ccccc3c2)CC1,nt,0,79,-12,-2.5,nt,90
Cn1ccnc1SCC(=O)Nc1ccc(Oc2ccccc2)cc1,0.89,-2,136,6,-0.1,i,101
Cc1nc2scc(-c3ccccc3)c2c(=O)n1N,1,7,nt,nt,-0.8,i,100
C=CCn1c(COc2ccccc2)nnc1SCc1ccc(C#N)cc1,0.75,-21,nt,nt,-1.7,i,103
Cc1ccc(C)c(CN2CCNC2=O)c1,0.85,6,97,-11,-2.1,i,7.9*
C1=Nc2ccccc2CN1c1ccccc1,0.96,-5,90,-19,-0.5,i,41
CC(C)(C)NC(=O)C1CC(=O)OC1(C)C (configuration not stated),0.89,-2,258,-106,-0.6,i,99
C=C(C)c1cccc(C(C)(C)NC(=O)N2CCCC2)c1,1,-5,58,-347,-2.8,i,194
Cc1nnc(-n2ncc(C#N)c2N)c2nn(-c3ccccc3F)c(C)c12,nt,4,158,22,-1.3,nt,nt
Cc1ccc(S(=O)(=O)N(CC(O)CN2CCCCC2)c2ccccc2)cc1 (configuration not stated),0.94,-9,nt,nt,-1.6,i,115
CCOC(=O)c1oc2ccccc2c1NC(=O)c1ccccc1OC,0.89,7,183,0,0.1,i,107

Another view of 3 compounds above:
> CN(C)S(=O)(=O)N1CCN(S(=O)(=O)c2ccc3ccccc3c2)CC1
  HSV replic up primary fold: nt	PKD1 kinase inh: 0	INS promoter inh cell count: 79	INS promoter inh: -12	GALR2 ag: -2.5	HSV replic up: nt	RGS16-Gao: 90

> Cc1ccc(C)c(CN2CCNC2=O)c1
  HSV replic up primary fold: 0.85	PKD1 kinase inh: 6	INS promoter inh cell count: 97	INS promoter inh: -11	GALR2 ag: -2.1	HSV replic up: i	RGS16-Gao: 7.9*

> Cc1ccc(S(=O)(=O)N(CC(O)CN2CCCCC2)c2ccccc2)cc1 (configuration not stated)
  HSV replic up primary fold: 0.94	PKD1 kinase inh: -9	INS promoter inh cell count: nt	INS promoter inh: nt	GALR2 ag: -1.6	HSV replic up: i	RGS16-Gao: 115

From PubChem BioAssay
